Source: PubChem
StopGo reporter: FMDV 2A StopGo reporter, luciferase signal; Potency, µM (titrated, usually from 57.9 µM), inactives show at the top dose signal change, negative = less light; human cells with a luciferase reporter of 2A StopGo recoding; control for the full effect not named in the record; actives 1.2% (n = 410,000); active = well fitted falling curve with a large enough effect; inconclusive = small, poorly fitted or top-dose-only effect; inactive = no such curve, though single readings can be large or run the other way; tested in HEK293T cells; also: % is scaled to controls: 0 for no effect and ±100 for the full control effect; nearly all actives have a fitted effect of over 45% in size; luciferase light after 4 h
RE007 growth inh: less growth of the S. pombe RE007 Vpr strain; S. pombe RE007 Vpr strain, BacTiter-Glo ATP luminescence, 24 h; control for the full effect not named in the record; Potency, µM (highest dose often 92.2 µM), for the others: top-dose activity change, negative = less growth; actives 0.21% (n = 360,000); AID 651644; active = well fitted falling curve with a large enough effect; inconclusive = small, poorly fitted or top-dose-only effect; inactive = no such curve, though single readings can be large or run the other way;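 also: % is scaled to controls: 0 for no effect and ±100 for the full control effect; nearly all actives have a fitted effect of over 50% in size; the assay follows cell death caused by Vpr and the record does not say whether a fall means rescue or toxicity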
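Fission yeast RE007 carrying one integrated HIV-1 vpr copy, seeded at OD 0.01 in PMG+AL medium with 23 nL pinned compound. Grown 24 h at 30 degrees; viability read by BacTiter-Glo luminescence after 5 min.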
Marburg entry inh: Marburg virus entry inhibition | Potency, µM (titrated, usually from 37.8 µM), without a hit: at the top dose activity change, negative = inhibition, usual class: inhibitors | actives 1.8% (n = 300,000) | Marburg virus pseudotyped entry inhibition, cell reporter; control for the full effect not named in the record; about a third of the inactives were read at about 46 µM | AID 540276; active = well fitted inhibition curve with a large enough effect; inconclusive = small, poorly fitted or top-dose-only effect, or effect the other way; inactive = flat fitted curve, though single readings scatter; tested in HEK293 cells; about a fifth of its hits are not listed in these tables; also: % is scaled to controls: 0 for no effect and ±100 for the full control effect; luciferase read-out
Cruzain inh noDet: cruzain (T. cruzi) inhibition without detergent; purified cruzain, Z-FR-AMC fluorescence, no detergent; actives 2.3% (n = 200,000); Potency, µM, inactives show max response, negative = inhibition, hits mostly inhibitors; active = well fitted curve in the direction sought with a large enough effect; inconclusive = small, poorly fitted or top-dose-only effect, or another doubt; inactive = no such curve, though single readings can be large; an effect the other way counts as inactive or inconclusive;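 also: plate controls were enzyme without inhibitor for no effect and buffer without enzyme for full effect; nearly all actives have a fitted effect of over 40% in size; top concentration of the series not given in the record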
Target sequence (P25779 123-467 limits assumed): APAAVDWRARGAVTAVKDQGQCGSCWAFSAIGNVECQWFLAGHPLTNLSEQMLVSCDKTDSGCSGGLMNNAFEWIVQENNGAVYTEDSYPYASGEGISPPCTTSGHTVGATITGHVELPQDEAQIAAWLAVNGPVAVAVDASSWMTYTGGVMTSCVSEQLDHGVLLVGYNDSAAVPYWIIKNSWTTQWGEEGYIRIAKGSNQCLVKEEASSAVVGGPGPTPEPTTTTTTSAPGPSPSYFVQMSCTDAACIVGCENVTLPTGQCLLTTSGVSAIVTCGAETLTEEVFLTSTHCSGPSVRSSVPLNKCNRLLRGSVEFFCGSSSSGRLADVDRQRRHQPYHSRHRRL
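Purified cruzain at 1.5 nM, pre-incubated 15 min with compound at room temperature in 100 mM sodium acetate pH 5.5, 5 mM DTT, 0.00005% Triton X-100. Reaction started with 2 uM Z-FR-AMC; AMC fluorescence increase over 60 s gives rate.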
NS1 function inh: influenza NS1 inhibition | S. cerevisiae slowed by influenza A NS1, growth recovery by OD600 | Potency, µM (doses to about 46.1 µM), inactives show at the top dose activity, positive = more growth | actives 0.4% (n = 270,000); also: actives are rising curves; nearly all actives have a fitted effect of over 50% in size
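S. cerevisiae expressing influenza A NS1, grown in glucose, washed, then diluted 1:100 into pH 6.0 -URA galactose medium with 23 nl compound. Growth recovery read as OD600; NS1-free strain serves as control.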
SARS PLpro yeast: blocks SARS-CoV papain-like protease in a yeast assay | S. cerevisiae expressing SARS-CoV PLpro, growth rescue; control for the full effect not named in the record | Potency, µM (series often up to 32.9 µM), for the others: at the highest dose activity, positive = growth rescue | actives 0.19% (n = 330,000) | AID 485353; also: 0% is about no effect; nearly all actives have a fitted effect of over 55% in size; growth read by luminescence after 48 h
Lassa entry inh: inhibitors of Lassa virus binding or cell entry; Lassa virus pseudotype entry inhibition, cell reporter; control for the full effect not named in the record; actives 1.2% (n = 300,000); AID 540256; Potency, µM (top dose mostly 37.9 µM), for inactives: at the top dose activity change, negative = inhibition, actives largely listed as inhibitors; active means well fitted inhibition curve with a large enough effect; inconclusive means small, poorly fitted or top-dose-only effect, or effect the other way; inactive means flat fitted curve, though single readings scatter; tested in HEK293 cells; also: % is scaled to controls: 0 for no effect and ±100 for the full control effect; nearly all actives have a fitted effect of over 50% in size; luciferase read-out
Cruzain inh Det: cruzain (T. cruzi) inhibition with detergent. purified cruzain, Z-FR-AMC fluorescence, 0.01% Triton. P25779. actives 0.43% (n = 200,000). Potency, µM, inactives show max response, negative = inhibition, actives largely listed as inhibitors; active = well fitted curve in the direction sought with a large enough effect; inconclusive = small, poorly fitted or top-dose-only effect, or another doubt; inactive = no such curve, though single readings can be large; an effect the other way counts as inactive or inconclusive;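 also: plate controls were neutral wells for no effect and buffer without enzyme for full effect; nearly all actives have a fitted effect of over 40% in size; top concentration of the series not given in the record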
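In this qHTS format, compounds are incubated with 1.5 nM cruzain for 15 min at room temperature before 2 uM Z-FR-AMC is added. Release of AMC is followed at 360/450 nm, and progress is taken as the 60 s fluorescence difference.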
Starred values were filed as active, the others as inactive; ? = inconclusive; · = not tested or not shown; & = joins results of further samples; [ ] = dose if it differs, or a comment. Unless noted, calls follow the shape of the dose curve; as a rule, active means well fitted rising curve with a large enough effect; inconclusive means small, poorly fitted or top-dose-only effect; inactive means no such curve, though single readings can be large or run the other way. Potency is read from the fitted curve at half-maximal effect.

molecule	Cruzain inh noDet	SARS PLpro yeast	Lassa entry inh	NS1 function inh	Cruzain inh Det	RE007 growth inh	StopGo reporter	Marburg entry inh
CCCCC[C@H]1CN(C2CCCCC2)C(=O)[C@@H]1CC(=O)NCc1ccc(OC)cc1	·	-22%	·	-52%	·	4%	-18%	·
CC(C)(C)S(=O)(=O)Cc1nc(-c2ccc(Cl)c(Cl)c2)cs1	·	-1%	-24%	-5%	·	13%	-16%	-8%[46.1 µM]
COc1ccccc1CCC(=O)NNC(=O)c1ccncc1	·	1%	4%	·	·	4%	-8%	2%[46.1 µM]
COc1ccc(N2CCN(S(=O)(=O)c3cc(Br)cc4c3N(C(=O)C3CC3)CC4)CC2)cc1	7%	·	-3%[46.1 µM]	·	-0.1%	·	3%	?
COc1ccc(-c2cc(C3CCN(c4cc(Cl)nc(N)n4)CC3)[nH]n2)cc1	-9%	-12%	?	-41%	-8.2%	3%	22µM*	9.2µM*
CC(Oc1ccccc1Cl)C(=O)N1CCCN(C)CC1 (configuration not stated)	·	4%	3%	12%	·	11%	-13%	-7%
COc1ccc(CCNC(=O)c2cc(=O)c3cc(C)cc(C)c3o2)cc1OC	?	·	-22%[46.1 µM]	·	-5.8%	·	?	-21%[46.1 µM]
CCOc1ccc(NC(=O)C2CCN(S(=O)(=O)c3ccc4c(c3)NC(=O)C(C)S4)CC2)cc1 (configuration not stated)	·	-5%	·	-8%	·	-2%	?	·
Cc1ccc2nc(NC(=O)COC(=O)c3ccccn3)sc2c1	·	-3%	?	·	·	4%	68%[activator]	9%[46.1 µM]
Cn1cccc1CC(=O)NNC(=O)Nc1ccc(Cl)cc1	-9%	-17%	14%	?	-0.1%	14%	23%	-13%
COc1ccc(N(CC(=O)NCCSc2ccccn2)S(=O)(=O)c2ccc(C)cc2)cc1OC	·	5%	-11%[46.1 µM]	-18%	·	-15%	22%	-22%[46.1 µM]
Cc1nc(=O)c(-c2ccccc2)c(C)n1-c1ccc(C(=O)O)cc1	10%	?	-1%	-4%	2.8%	6%	-4%	1%
COc1ccccc1CCNC(=O)c1cnn2c(C(F)F)cc(C)nc12	-14%	4%	-1%	-17%	-2.9%	12%	-20%	-3%
Cn1c(NC(=O)c2cccc(C(F)(F)F)c2)cc(=O)n(C)c1=O	-6%	-13%	·	-1%	-5.3%	1%	-25%	·
CCCCOP(=O)(c1ccc(N(C)C)cc1)C(O)c1cc(OC)ccc1OC (configuration not stated)	·	-3%	?	2%	·	12%	47%[activator]	-6%
COC(=O)CN1C(=O)[C@H]2[C@@H](c3ccc(C)o3)N3C(=O)CN(CC4CC4)C(=O)[C@@]3(C)[C@H]2C1=O	·	-6%	·	11%	·	-4%	1%	·
CC(C)Cn1cnc2c1c(=O)[nH]c(=O)n2Cc1ccccc1	·	2%	·	-2%	·	3%	-3%	·
CC1CCN(S(=O)(=O)c2ccc3c(c2)N(CC(=O)NC(C)(C)C)C(=O)CS3)CC1	0%	·	·	·	-0.7%	·	4%	?
O=C(CSc1cccc[n+]1[O-])c1ccc(Cl)s1	·	-4%	10%	·	·	?	14%	-11%
CC(=O)Nc1cc2c3c(c1)CC(=O)N3CCC2	·	-2%	·	7%	·	3%	-4%	·
COc1ccc(S(=O)(=O)N2CCOC2CNC(=O)C(=O)NCc2ccncc2)cc1 (configuration not stated)	·	-1%	·	13%	·	-5%	-16%	·
O=C(COC(=O)CCN1C(=O)c2cccc([N+](=O)[O-])c2C1=O)NC1CCS(=O)(=O)C1 (configuration not stated)	·	-1%	-16%	·	·	21%	-5%	?
O=C(O)CCC(=O)Nc1ccc(/C=C/C(=O)C2CC2)cc1	·	1%	1%	-1%	·	18%	-16%	2%[46.1 µM]
Cc1cc(S(=O)(=O)NCc2ccccc2)ccc1OCC(=O)Nc1cccc([N+](=O)[O-])c1	25µM*	0%	?	9%	-5.2%	-1%	-20%	12µM*
CN(CC1CCCN(CCc2cccc(C(F)(F)F)c2)C1)C(=O)c1cc2ccccc2o1 (configuration not stated)	·	1%	·	-5%	·	-10%	-27%	·
Cc1ccc(C(=O)NNC(=O)CSc2nnc3c(n2)[nH]c2ccc(F)cc23)cc1	?	0%	-3%	3%	-14%	0%	11%	0%
Cc1ccc(NS(=O)(=O)c2cc(Br)cnc2N)c(Cl)c1	·	-8%	·	-44%	·	-12%	5%	·
Cc1coc2c(C)c3oc(=O)c(CCC(=O)NCCCn4ccnc4)c(C)c3cc12	·	-14%	·	2%	·	-26%	-16%	·
O=C(COc1ccc(S(=O)(=O)N2CCCC2)cc1)NCc1cccnc1	·	0%	0%	?	·	3%	18%	0%[46.1 µM]
O=C(CSc1nnc(-c2ccccc2)o1)NCC1CCCCC1	-12%	-3%	-2%	-5%	3.6%	-2%	-2%	-6%
CCCOC(=O)c1ccc(Cn2nnc3sc4c(c3c2=O)CCC(C)C4)cc1 (configuration not stated)	-6%	·	4%[46.1 µM]	·	-3.2%	·	-17%	10%[46.1 µM]
CCOC(=O)C1=C(C)Nc2nc(SCc3cccnc3)nn2C1c1ccc(OC)cc1 (configuration not stated)	-5%	-1%	·	-3%	-0.7%	5%	?	-1%
Cc1ccc(N2CC(=O)Nc3c(oc4nc(-c5ccccc5)cc(C)c34)C2=O)cc1	·	0%	0%	2%	·	-14%	-13%	5%[46.1 µM]
COc1ccccc1NC(=O)C1CCCCN1S(=O)(=O)c1ccc(F)cc1 (configuration not stated)	3%	-3%	-5%	-10%	2.6%	-1%	?	-6%
Cn1c(=O)c2c(SCC(=O)Nc3cccc(F)c3)nc(-c3ccco3)nc2n(C)c1=O	·	-4%	-10%	9%	·	4%	-18%	-15%
COc1ccc(S(=O)(=O)c2ccc(O)cc2)cc1	-7%	13%	21%	?	6.6%	16%	3%	14%
O=C(NCc1ccco1)C12CN(Cc3ccccc3)CC1C(c1cccc([N+](=O)[O-])c1)=NO2 (configuration not stated)	-17%	-11%	·	5%	3.3%	-10%	1%	·
Nc1nc(SCc2ccccc2)cc(SCc2ccccc2)n1	·	·	?	·	·	5%	5%	?
COc1ccc(-c2c(C#N)c(N)n(N)c(=O)c2C#N)cc1Cl	·	1%	·	·	·	-5%	-27%	?
COc1cccc(-n2cnc3sc(C)c(C)c3c2=O)c1	1%	-3%	-5%	-15%	-2.4%	?	-11%	?
N#Cc1ccc(NC(=O)Cn2cnc(S(=O)(=O)N3CCc4ccccc43)c2)cc1	·	0%	·	9%	·	24%	-14%	·
O=C(CCc1nc(-c2ccccc2F)no1)Nc1ccc(Oc2ccccc2)cc1	?	6%	?	-24%	-3.1%	8%	?	-12%&-12%[46.1 µM]
CC(=O)c1cc(C(c2csc(C(C)=O)c2)c2csc(C(C)=O)c2)cs1	29%	-11%	0%	20%	-5.5%	-1%	-13%	-10%
CN(C)CCNc1ccc(Cl)cc1[N+](=O)[O-]	6%	16%	17%	5%	-6.0%	-4%	-22%	4%
N=C1C(c2ccccc2)=C(O)CN1c1cccc(S(N)(=O)=O)c1	-7%	24%	15%	-4%	-1.4%	3%	-10%	-3%[46.1 µM]
CC1C(=O)CC(c2ccc([N+](=O)[O-])cc2)NC1c1ccc([N+](=O)[O-])cc1 (configuration not stated)	·	0%	-17%	1%	·	16%	?	?
CCSc1ccccc1C(=O)NCc1ccc(S(N)(=O)=O)cc1	-3%	3%	1%	0%	2.4%	3%	1%	7%
O=C(O)CCCC(=O)Nc1ccccc1C(=O)O	-4%	0%	-1%	7%	-0.2%	-10%	-12%	23%
CC(=O)N(c1ccccc1)C(C)c1nc(C#N)c(C#N)nc1C (configuration not stated)	9%	?	-7%	-16%	-4.2%	18%	?	10%
N#Cc1c(F)cccc1NCc1cccnc1	·	0%	?	0%	·	-5%	-17%	10%
O=c1[nH]c2cc3c(cc2cc1C(c1nnnn1CC1CCCO1)N1CCCCCC1)OCO3 (configuration not stated)	4%	-5%	·	5%	-9.4%	·	·	·
CCC1SC(CC)C(=O)N(CC(=O)NC2CCCCC2)C1=O (configuration not stated)	·	3%	0%	·	·	-7%	6%	?
CCCCN1c2cc(C)c(O)cc2C(C(=O)OCC)C1C (configuration not stated)	-28%	1%	-3%	-6%	-5.1%	-12%	0%	-6%
COc1ccc(C2=NCC(CSc3nnnn3C)S2)cc1 (configuration not stated)	-2%	2%	11%	0%	-0.8%	7%	14%	?
C=CCn1c(SCC(=O)Nc2ccc3c(c2)OCCO3)nnc1-c1ccccn1	2%	-9%	23%	-7%	2.1%	0%	-7%	6%
O=C(N/N=C/c1ccc(OC(F)F)cc1)c1cccc(S(=O)(=O)N2CCOCC2)c1	·	-1%	-11%	·	·	-7%	7%	1%[46.1 µM]
Cc1cc(C(=O)Nc2ccccc2C(F)(F)F)no1	-7%	0%	-17%	-5%	-3.3%	-14%	13%	10%
COc1ccccc1CN1CC(C(=O)NCCc2ccccc2Cl)CCC1=O (configuration not stated)	·	-7%	·	0%	·	-5%	48%[activator]	·
Cc1ccccc1C(=O)NC(=S)NCCC1=CCCCC1	·	0%	-11%	3%	·	-15%	-10%	-22%[46.1 µM]
CCN1CCN(C(=O)CCCn2c(C)c3cnn(-c4ccccc4)c(=O)c3c2C)CC1	1%	-2%	·	9%	-0.5%	19%	-11%	-3%
Cc1c(C(=O)NCc2ccccc2Br)oc2c1-c1[nH]ncc1CC2	4%	·	4%[46.1 µM]	·	-2.3%	·	7%	?
CCn1c(=O)cc(C(F)(F)F)[nH]c1=S	·	0%	-1%	·	·	-15%	-11%	0%[46.1 µM]
O=C(Nc1ccc(F)cc1F)c1ccc(-n2cncn2)nc1	-9%	-1%	11%	2%	0.3%	-17%	-14%	16%

Outcome played no part in choosing rows. About 4.7% of those tested had a hit in this group.
